OX1R antag – antagonists of human orexin 1 receptor (OX1R); AID 485270; O43613; 1.8% of 330,000 active; OX1R-expressing cells, FRET antagonist read-out; inhibition, % at 6.6 µM; in the data active means inhibition mostly above about 38%, no sharp cut-off; inactive means mostly below about 40%;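 further: 0% = agonist challenge alone and 100% = reference antagonist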
Target sequence (O43613 whole entry, looked up): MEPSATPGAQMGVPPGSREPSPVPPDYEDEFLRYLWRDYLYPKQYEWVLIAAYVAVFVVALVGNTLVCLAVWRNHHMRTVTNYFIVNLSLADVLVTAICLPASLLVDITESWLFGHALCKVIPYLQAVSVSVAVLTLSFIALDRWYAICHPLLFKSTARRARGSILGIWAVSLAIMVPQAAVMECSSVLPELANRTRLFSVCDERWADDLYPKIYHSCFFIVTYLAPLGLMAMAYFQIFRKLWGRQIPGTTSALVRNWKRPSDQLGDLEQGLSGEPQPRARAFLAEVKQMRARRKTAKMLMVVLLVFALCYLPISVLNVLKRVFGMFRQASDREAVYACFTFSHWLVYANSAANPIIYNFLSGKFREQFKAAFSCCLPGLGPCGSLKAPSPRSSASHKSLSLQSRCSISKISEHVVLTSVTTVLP
The depositor's hits bear a star. Not all compounds are listed, and most or all hits are left out here.

OX1R antag	canonical_smiles
19	O=C(O)CS(=O)(=O)c1ccc(Oc2ccc(S(=O)(=O)CC(=O)O)cc2)cc1
11	Cc1cnccc1NC(=O)c1cccs1
28	COc1ccccc1CNC(=O)c1oc2ccccc2c1C
16	CCc1ccc(-c2cc(C(=O)Nc3ccc(S(=O)(=O)NC(C)=O)cc3)c3ccccc3n2)cc1
-5	O=C(Nc1ccnn1C1CCN(Cc2cccnc2)CC1)c1ccccc1Cl
10	C=CCNC(=O)CN1CCC(O)(c2ccccc2)CC1
18	COC(=O)C(N)Cc1ccc(O)c(O)c1 (configuration not stated)
25	CN1CCN(CCCCOc2ccc(F)cc2)CC1
18	COc1ccc(CCNC(=O)c2ccc3c(SCC(=O)O)c4c(nc3c2)CCCC4)cc1OC
15	C1CCc2c(nc3nnnn3c2NC2CCCC2)C1
8	CCCCOC(=O)Cn1c(=N)n(CCC)c2ccccc21
11	O=C(CSc1ncn[nH]1)N1N=C2/C(=C/c3ccco3)CCCC2C1c1ccco1 (configuration not stated)
4	O=C(Cn1cnc2c(cnn2-c2ccccc2)c1=O)NC1CCCC1
7	COc1ccc(NC(=O)CN2C(=O)CC(C)(C)S(=O)(=O)c3ccccc32)cc1
15	O=C1/C(=C/c2cccs2)SC(=S)N1CCCC(=O)N(CCO)c1ccccc1
21	C=CCOn1c(=O)c(=O)n(OCc2ccccc2)c2ccccc21
15	CC(C)S(=O)(=O)CC(=O)c1ccc(Cl)cc1
13	COCCCn1c(SCc2cc(=O)[nH]c3ccccc23)nnc1-c1ccco1
24	Cc1ccc(OCC(=O)N/N=C\c2cccn2C)c([N+](=O)[O-])c1
11	CCOC(=O)Nc1oc2ccccc2c(=O)c1C
14	O=C(NNC(=O)c1cccc2ccccc12)c1ccc(-c2ccccc2)cc1
20	S=c1[nH]nc(COc2ccccc2)n1/N=C/c1c(Cl)cccc1Cl
5	CC1(C)CC2CC(C)(CN2C(=O)c2ccc([N+](=O)[O-])cc2)C1 (configuration not stated)
2	CC1(C)CC(=O)c2cc(OCC(=O)N3CCOCC3)ccc2O1
26	O=C1CC(c2ccco2)CC(O)=C1C=Nc1ccc(Br)cc1 (configuration not stated)
22	COc1cccc(CN2CCC(C(=O)N3CCN(Cc4ccc5c(c4)OCO5)CC3)CC2)c1OC
21	CCC(=O)N1CCc2cc(S(=O)(=O)N3CCN(C(=O)c4ccco4)CC3)ccc21
7	Cn1c(N)c(C(=O)COC(=O)/C=C/c2ccc(OC(F)F)cc2)c(=O)n(C)c1=O
12	COc1ccc(C(=O)CSc2nnc(-c3ccoc3C)n2CC2CCCO2)cc1 (configuration not stated)
26	Cc1ccc2nc(NCCO)nc(-c3ccccc3)c2c1

Some of the entries above in another layout:
Structure | OX1R antag
O=C1/C(=C/c2cccs2)SC(=S)N1CCCC(=O)N(CCO)c1ccccc1 | 15
C=CCOn1c(=O)c(=O)n(OCc2ccccc2)c2ccccc21 | 21
CC(C)S(=O)(=O)CC(=O)c1ccc(Cl)cc1 | 15
COCCCn1c(SCc2cc(=O)[nH]c3ccccc23)nnc1-c1ccco1 | 13
Cc1ccc(OCC(=O)N/N=C\c2cccn2C)c([N+](=O)[O-])c1 | 24
CCOC(=O)Nc1oc2ccccc2c(=O)c1C | 11
O=C(NNC(=O)c1cccc2ccccc12)c1ccc(-c2ccccc2)cc1 | 14

(cont.)
OX1R antag	canonical_smiles
4	O=C(CSc1nnc(NC(=O)c2ccco2)s1)NCc1ccc2c(c1)OCO2
20	CC(C)CNC(=O)COC(=O)c1ccc(F)cc1Cl
19	O=C(NCCCN1CCCC1=O)c1ccc2c(=O)n(-c3ccccc3F)c(=S)[nH]c2c1
11	COc1ccc(C(=O)NC(=O)COC(=O)C2COc3ccccc3O2)cc1 (configuration not stated)
39	Cc1ccc2cc3c(NC(=O)C(C)C)nn(C)c3nc2c1
23	COC(=O)CCC(=O)NC(=S)Nc1c(C)cccc1C
13	O=C(Nc1ccc2c(c1)OCO2)C1(S(=O)(=O)c2ccc(Cl)cc2)CC1
12	O=C(O)C(c1ccccc1)N1C(=O)c2ccccc2C1=O (configuration not stated)
17	Cc1ccc(OCC(=O)Nc2ccc3c(c2)OCO3)c([N+](=O)[O-])n1
-6	Cc1ccc(S(=O)(=O)c2ccccc2)cc1S
13	CC(C)N1CCc2c(sc(NC(=S)NC(=O)c3ccccc3)c2C#N)C1
4	O=C(NNC(=O)c1ccccc1O)c1ccco1
13	Cc1nc(-c2ccccn2)nc(N(C)c2ccccc2)c1Cl
22	CNCc1ccccc1Sc1ccc(OC)c(OC)c1
8	N#CCSCC(=O)Nc1ccc(Cl)cc1
2	O=C(NCc1c[nH]c2ccccc12)c1ccccc1
9	COC(=O)c1sc(-c2ccccc2)cc1NC(=O)C1CC1
32	O=C(CN(C(=O)CCC(=O)Nc1nccs1)c1ccc(F)cc1)NCc1ccc(F)cc1
15	CC12CCC(=O)N1C(C(=O)Nc1cccc(F)c1)CS2 (configuration not stated)
17	COc1ccc(Cc2nnc(NC(=O)c3ccccc3F)s2)cc1OC
5	CC(C)(CN1CCCC1)NS(=O)(=O)c1ccc(Cl)cc1
35	O=C(NC1CC1)C1=C[C@H](c2csc3ccccc23)C[C@H](OCCCCO)O1
4	COc1ccc(C)c2sc(N(CCCN(C)C)C(=O)c3ccc(S(=O)(=O)N(C)C)cc3)nc12
-3	CCOc1ccc(NC(=O)CSc2nnc(CNC(=O)c3ccco3)o2)cc1
18	Cc1ccc(-n2cnc3ncnc(-c4ccccc4)c32)cc1
8	Cc1ccc(C(CCNC(C)c2cccs2)c2ccco2)cc1 (configuration not stated)
13	CC(NS(=O)(=O)c1ccc2c(c1)CC(C)N2C(=O)C1CC1)c1ccccc1 (configuration not stated)
5	CC(=O)N(Cc1ccc(Br)cc1)c1ccccc1C(=O)O
11	CCc1noc(C)c1C(=O)NNC(=O)c1cc(OC)c(OC)c(OC)c1
14	CC1CC1C(=O)OCC(=O)NCc1ccc(Cl)cc1 (configuration not stated)

Next part (6 carried over from the part before).
OX1R antag	canonical_smiles
18	Cc1ccc(-n2cnc3ncnc(-c4ccccc4)c32)cc1
8	Cc1ccc(C(CCNC(C)c2cccs2)c2ccco2)cc1 (configuration not stated)
13	CC(NS(=O)(=O)c1ccc2c(c1)CC(C)N2C(=O)C1CC1)c1ccccc1 (configuration not stated)
5	CC(=O)N(Cc1ccc(Br)cc1)c1ccccc1C(=O)O
11	CCc1noc(C)c1C(=O)NNC(=O)c1cc(OC)c(OC)c(OC)c1
14	CC1CC1C(=O)OCC(=O)NCc1ccc(Cl)cc1 (configuration not stated)
10	CCOC(=O)C1CCN(C(c2cc3c(C)ccc(C)c3[nH]c2=O)c2nnnn2C2CCCCC2)CC1 (configuration not stated)
24	CC(C)(C)OC(=O)N1CCC[C@H]1c1nnc(SCc2c(F)cccc2Cl)o1
16	O=C(CN1CCOCC1)N1CCN(c2nnc(-c3ccccc3)c3ccccc23)CC1
11	CCCCC(=O)N1CCCC(c2nc(-c3cccc(OC)c3)no2)C1 (configuration not stated)
26	CCOC(=O)c1c(C)[nH]c(C)c1C(=O)COC(=O)c1ccccc1O
10	COc1cccc(CNC(=O)CCC2CCCN(Cc3ccc(OC(F)F)cc3)C2)c1 (configuration not stated)
11	CCOc1cc(N2CCOCC2)c(OCC)cc1NC(=O)COC(=O)CCc1c[nH]c2ccccc12
16	CC(=O)C1(C)N(O)C(C)(C)C(c2ccco2)=[N+]1[O-] (configuration not stated)
31	Cc1ccc(CNC(=O)CSc2nc3n[nH]c(C)c3c(=N)n2-c2cccc(C)c2)cc1
15	CCOc1ccc2nc(NC(=O)c3cc([N+](=O)[O-])ccc3N3CCOCC3)sc2c1
13	O=C(CN1CCOCC1)NCc1ccccc1
10	CCCCOc1ccc(C(C)NC(=O)CCS(=O)(=O)Cc2ccc(C)cc2)cc1 (configuration not stated)
11	Cc1[nH]c2ccc(C(=O)N3CCN(C)CC3)cc2c1C
14	CCCOc1c(Br)cc(C2C3=C(CCCC3=O)N(CC)C3=C2C(=O)CCC3)cc1OC
27	CN(C)CCCNC(=S)NCCNc1nc2cc3c(cc2cc1C#N)OCO3
8	CCOc1ccc(CCNC(=O)COC(=O)c2ccc(S(C)(=O)=O)cc2)cc1OCC
13	CCOC(=O)C1(Cc2ccccc2)CCCN(Cc2ccc(OCC)c(CO)c2)C1 (configuration not stated)
6	O=C(c1ccccc1O)N1CCOCC1
23	Nc1nc(SCC(=O)NCc2ccc3c(c2)OCO3)n[nH]1
0	CCC1CCCCN1CCNS(=O)(=O)c1ccc2c(c1)oc(=O)n2C (configuration not stated)
14	COc1ccc(/C=N/NC(=O)CN2CCCCCCC2)c(C)c1C
15	CC(C)C(=O)Nc1nc(-c2ccc(S(=O)(=O)N3CCOCC3)cc2)cs1
0	CCCCn1c(-c2ccc(OC)cc2)nc2c(=O)n(C)c(=O)[nH]c21
5	CCN(CC)C(=O)COc1ccc2c(c1)C(=O)CC(C)(C)O2
1	Cc1cc2c(=O)oc(-c3ccc(Br)cc3)nc2s1
13	CCC(C(=O)OC(C)C(=O)Nc1ccc(Cl)cn1)c1ccccc1 (configuration not stated)
4	CCOC(=O)NCN1C(=O)C2C3C=CC(C3)C2C1=O (configuration not stated)
16	CCC(C)(C)n1nnnc1C(c1ccc(OC)c(OC)c1)N1CCN(c2ccc(F)cc2)CC1 (configuration not stated)
25	CCCC(c1nnnn1CS(=O)(=O)c1ccc(C)cc1)N1CCN(C2CCCC2)CC1 (configuration not stated)
3	CSc1nc2nc3c(cc2c(=O)n1-c1cccc(C)c1)COC(C)(C)C3
13	COc1ccc(Nc2cc(C)c3cc([N+](=O)[O-])ccc3n2)cc1
5	O=C(NCCCn1ccnc1)C(=O)NC1CCCCC1
12	CCc1ccc(C(=O)COc2ccc(NC(C)=O)cc2)cc1
12	Cc1c(NC(=O)C2(c3ccc(Cl)cc3)CCCC2)c(=O)n(-c2ccccc2)n1C
18	C=CCc1cccc(CNc2nc3ccccc3n2C(C)C)c1O
22	CCCCNC(=O)COC(=O)c1ccc(C)c(NC(=O)c2ccco2)c1
22	COc1ccc(CC(=O)N(Cc2ccccc2)C(C)C)cc1
21	O=C(COc1ccc(/C=N/NC(=O)c2ccccc2)cc1)Nc1ccc([N+](=O)[O-])cc1
0	O=C(CC(c1ccccc1)c1ccccc1O)N1CCCCC1 (configuration not stated)
31	O=C(Nc1ccc(Oc2ccccc2)nc1)C1CCN(Cc2ccccc2)CC1
9	CC(=O)c1ccccc1OC(=O)c1ccc(-c2ccccc2)cc1
0	O=C(CCc1nnc(CCCCc2ccccc2)o1)NC(c1cccnc1)C(F)(F)F (configuration not stated)
6	Clc1ccc(CSc2nnc(-c3ccncc3)o2)c(Cl)c1
17	CCOc1ccc(-c2noc(-c3ccncc3)n2)cc1OCC
7	O=C(O)COc1ccc(Oc2ccccc2)cc1
11	COc1ccc(S(=O)(=O)N2CCC(C(=O)NC3CCCC3)CC2)cc1C
40	COc1cc(CNn2c(C)n[nH]c2=S)cc(Cl)c1OCc1ccccc1
21	O=C(Nc1ccccc1)NC1CC2CCC(C1)N2Cc1nnnn1Cc1ccc2c(c1)OCO2 (configuration not stated)
17	O=C(Nc1ccc2c(c1)OCCO2)c1ccc(Br)o1
6	O=C(Cc1csc(-c2ccccc2)n1)NCc1cccs1
15	CSc1ccc(Cl)c(C(=O)Nc2ccc(Cl)cn2)c1
18	NCc1ccccc1COc1ccccc1
20	Cc1cc(C)cc(NC(=O)CSc2nc3c(oc4ccccc43)c(=O)n2-c2ccccc2)c1
16	Cc1nonc1NC(=O)CSc1nc2ccccc2cc1C#N
-2	Cn1c(=O)c2c(ncn2CC(=O)Nc2ccccc2N2CCOCC2)n(C)c1=O
3	O=C(NCC(c1ccco1)N1CCOCC1)c1ccc(F)c(F)c1 (configuration not stated)
1	Cc1cc(C)c(S(=O)(=O)Nc2ccc(O)c(Sc3ncn[nH]3)c2)c(C)c1
13	Cc1cccc(C)c1NC(=O)CSc1nc(C)c(CC(=O)c2ccc(Br)cc2)c(C)c1C#N
9	CCCCn1nnc(NC(=O)COc2ccc(Cl)c(C)c2)n1
25	Cc1ccc(NC(=O)CN(C)S(=O)(=O)c2cnc[nH]2)c(C)c1

Part of the list above in a different format.
Cc1cccc(C)c1NC(=O)CSc1nc(C)c(CC(=O)c2ccc(Br)cc2)c(C)c1C#N
  OX1R antag: 13

COc1cc(CNn2c(C)n[nH]c2=S)cc(Cl)c1OCc1ccccc1
  OX1R antag: 40

CSc1ccc(Cl)c(C(=O)Nc2ccc(Cl)cn2)c1
  OX1R antag: 15

C=CCc1cccc(CNc2nc3ccccc3n2C(C)C)c1O
  OX1R antag: 18

The list goes on:
OX1R antag	canonical_smiles
14	COc1cccc(NC(=O)CN(C)CC(=O)NC(C)c2ccccc2)c1 (configuration not stated)
4	O=C(O)COCC(=O)N1CCc2c([nH]c3ccccc23)C1C(F)(F)F (configuration not stated)
9	CCCNc1nc2c(c(=O)[nH]c(=O)n2C)n1CCc1ccccc1
3	Clc1ccc(-n2ncc3c(NCCCn4ccnc4)ncnc32)cc1
1	O=C(COn1nnc2ccccc21)N1CCN(Cc2ccccc2)CC1
15	CSCCn1c(C(C)(C)C)cc(C(=O)O)c1C
6	CCN1CCN(Cc2cccc(Oc3ccc(Cl)cc3)c2)CC1
12	Cc1ccc(NC(=O)c2ccc(Cl)cc2[N+](=O)[O-])nc1
8	Cn1cnnc1SCC(=O)NNC(=O)c1ccc(Cl)cc1
18	Cc1ccc(SCc2cc(=O)[nH]c(N3CCN(Cc4ccc5c(c4)OCO5)CC3)n2)cc1
-2	Cn1cc(Br)c(C(=O)Nc2nccs2)n1
0	COc1ccc(NCC(=O)n2c(C)c(C)c3ccccc32)cc1
7	CNC(=S)N1N=C(c2ccc(Br)cc2)CC1c1ccc(Br)cc1 (configuration not stated)
30	CCc1ccc(NC(=O)Nc2ccsc2C(=O)OC)cc1
27	COCCNC(=O)c1onc(CSc2cc(C)ccc2C)c1C(=O)O

Screens as filed in PubChem BioAssay.
